Source: PubChem
Sfp inh: qHTS Assay for Inhibitors of Bacillus subtilis Sfp phosphopantetheinyl transferase (PPTase). 4'-phosphopantetheinyl transferase ffp (Bacillus subtilis), Q9F4F7. Biochemical Sfp PPTase activity, qHTS. Potency, µM, inactives show max response, negative = inhibition, usual class: inhibitors. hit rate 3.5% among 310,000. AID 1490, 2009; active = well fitted inhibition curve with a large enough effect; inconclusive = small, poorly fitted or top-dose-only effect, or another doubt; inactive = no such curve, though single readings can be large or run the other way;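 note: the enzyme is Sfp with the accession as filed and its product quenches rhodamine fluorescence; potency is the fitted concentration of half-maximal effect; 0% = enzyme reaction without inhibitor and -100% = no enzyme wells; top concentration of the series not given in the record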
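Buffer: 50 mM Hepes-Na pH 7.6, 10 mM MgCl2, 0.01% Nonidet P-40, 0.01% BSA. Enzyme 15 nM, pre-exposed to compound 15 min; substrates then added and fluorescence change tracked over 30 min.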
TRPV1 potentiator: HTS Assay for Compounds that Act as Potentiators of the Vanilloid Receptor 1; Transient receptor potential cation channel subfamily V member 1 (Homo sapiens), Q8NER1; TRPV1-expressing cells, Fluo-8 calcium influx, capsaicin EC20 potentiation; host cell line not named in the record; control for the full effect not named in the record; potentiation, % at 8.33 µM; hit rate 0.02% among 320,000; AID 540277, 2011; active means potentiation above 80%; inconclusive means 30% to 80%; inactive means below 30%; note: 0% is about no effect
Target sequence (Q8NER1 whole entry, looked up): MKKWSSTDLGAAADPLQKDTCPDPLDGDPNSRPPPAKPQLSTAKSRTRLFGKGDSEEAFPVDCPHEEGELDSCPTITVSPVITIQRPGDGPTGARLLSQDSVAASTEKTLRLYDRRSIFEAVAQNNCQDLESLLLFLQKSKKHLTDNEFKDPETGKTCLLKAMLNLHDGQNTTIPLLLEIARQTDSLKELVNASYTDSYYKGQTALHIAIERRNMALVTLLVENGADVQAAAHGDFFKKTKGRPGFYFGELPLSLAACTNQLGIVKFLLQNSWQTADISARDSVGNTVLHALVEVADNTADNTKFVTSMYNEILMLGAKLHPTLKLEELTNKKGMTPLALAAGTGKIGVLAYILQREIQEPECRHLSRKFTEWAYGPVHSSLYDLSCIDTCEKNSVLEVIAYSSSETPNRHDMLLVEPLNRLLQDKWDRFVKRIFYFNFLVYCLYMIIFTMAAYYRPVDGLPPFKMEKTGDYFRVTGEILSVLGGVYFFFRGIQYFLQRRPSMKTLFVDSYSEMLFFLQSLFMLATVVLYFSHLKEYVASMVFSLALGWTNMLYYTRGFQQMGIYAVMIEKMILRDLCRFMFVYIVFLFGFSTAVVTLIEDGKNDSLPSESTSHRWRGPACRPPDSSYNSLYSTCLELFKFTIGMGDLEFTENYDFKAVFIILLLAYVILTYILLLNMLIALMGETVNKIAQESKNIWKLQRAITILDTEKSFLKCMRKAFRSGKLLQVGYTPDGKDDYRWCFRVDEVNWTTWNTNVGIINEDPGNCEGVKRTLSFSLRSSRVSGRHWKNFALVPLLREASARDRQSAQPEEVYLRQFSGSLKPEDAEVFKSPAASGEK
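TRPV1-expressing cells were cultured overnight at 35.5C and loaded with Fluo-8 calcium dye for 40 to 90 min at room temperature. After a 10 s baseline, compound was added and calcium influx was read kinetically for 3 min (ex 480/em 520 nm).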
gsp antag: qHTS for Antagonists of gsp, the Etiologic Mutation Responsible for Fibrous Dysplasia/McCune-Albright Syndrome: qHTS; Potency, µM (doses to about 76.9 µM), for inactives: at the top dose activity change, negative = inhibition, most hits filed as inhibitors; gsp-mutant cells, cAMP HTRF, 30 min; control for the full effect not named in the record; hit rate 0.4% among 340,000; active = falling curve of any shape with a large fitted effect; inconclusive = falling curve, mostly with a smaller effect; inactive = flat or rising curve; cell line not stated here;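 note: intracellular cAMP measured with PDE inhibitor Ro 20-1724 present during compound exposure; potency is the fitted concentration of half-maximal effect; % is set by controls: 0 for no effect and ±100 for the full control effect; nearly all actives have a fitted effect of over 65% in size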
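HTRF cAMP read-out (cAMP-d2 plus anti-cAMP antibody-K in lysis buffer, 30 min RT). Before lysis, cells are exposed to compounds with […] for 30 min at 37C in DPBS containing Ca/Mg, BSA and Tween 20.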
ClpP mod: qHTS Assay for Activators of ClpP; ATP-dependent Clp protease proteolytic subunit (Bacillus subtilis (strain 168)), P80244; purified B. subtilis ClpP, FRET peptide cleavage, 20 min; Potency, µM (series often up to 57.5 µM), for the others: at the top dose activity change, negative = active; hit rate 1.9% among 340,000; active = well fitted falling curve with a large enough effect; inconclusive = small, poorly fitted or top-dose-only effect; inactive = no such curve, though single readings can be large or run the other way; note: potency is the fitted concentration of half-maximal effect; the source files actives as falling curves though it sought activators and does not explain the sign; nearly all actives have a fitted effect of over 65% in size; many hits overshoot -100%
Target sequence (P80244 whole entry, looked up): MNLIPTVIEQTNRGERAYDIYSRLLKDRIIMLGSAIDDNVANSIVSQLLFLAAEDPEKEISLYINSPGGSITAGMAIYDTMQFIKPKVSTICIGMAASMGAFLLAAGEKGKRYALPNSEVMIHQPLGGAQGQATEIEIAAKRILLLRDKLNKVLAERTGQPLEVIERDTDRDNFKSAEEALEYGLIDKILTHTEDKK
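FRET quenching reversal measured ClpP activation: 10 microg/mL B. subtilis ClpP at pH 8 with the FRET-FV decapeptide, read at 430 nm after 320 nm excitation. The 20-min minus 0-min signal was scaled between DMSO/no-enzyme wells and ADEP (5.8 microM final).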
D2 PAM: Beta-Arrestin HTS for Positive Allosteric Modulators of the Human D2 Dopamine Receptor: Potentiators; hit rate 0.23% among 360,000; D(2) dopamine receptor (Homo sapiens), P14416; AID 624464, 2012; DiscoveRx D2 beta-arrestin cells, luminescence, 90 min; 100% = 57 uM dopamine signal; potentiation, % (concentration not given with the values); active = potentiation of 50% or more; inconclusive = 30% to 50%; inactive = 30% or less;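 note: compound concentration not given in the record; tested on top of an EC20 dose of dopamine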
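PathHunter D2 cells, attached overnight at 37 deg C, received compound in DMSO plus dopamine at EC20 (50 nM final) for 90 min at 37 deg C. Beta-arrestin recruitment was read as luminescence after 1 h with detection reagent at ambient temperature.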
Menin-MLL FL inh: qHTS Assay for Inhibitors Targeting the Menin-MLL Interaction in MLL Related Leukemias: Competition With Fluorescein Labeled MLL-derived Peptide; Fluorescence polarization, fluorescein-MLL peptide displacement from menin; AID 1766, 2009; FP activity change, % at 61.4 µM; 290,000 tested, under 10 active; inconclusive = falling polarisation curve, or a change in total fluorescence; inactive = total fluorescence flat and polarisation flat or rising; no compound was filed as active; the % refers to the polarisation; negative = inhibition;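 note: % of control where 0% means no effect; inhibitors lower the polarisation; unlabelled MLL peptide was the positive control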
gsp agonist: qHTS for Agonist of gsp, the Etiologic Mutation Responsible for Fibrous Dysplasia/McCune-Albright Syndrome: qHTS; gsp mutant cells, cAMP HTRF, 30 min; control for the full effect not named in the record; Potency, µM (top dose mostly 76.9 µM), for the others: top-dose activation (cAMP increase), usual class: activators; hit rate 0.13% among 340,000; AID 624287, 2012; active = well fitted activation curve with a large enough effect; inconclusive = small, poorly fitted or top-dose-only effect, or another doubt; inactive = no such curve, though single readings can be large or run the other way; cell line not stated here;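 note: phosphodiesterase inhibitor Ro 20-1724 added with compounds to block cAMP breakdown; potency is the fitted concentration of half-maximal effect; nearly all actives have a fitted effect of over 60% in size; about a fifth of the inactives were tested at one dose only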
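Cells stably selected in G418 were plated at 2000/well, grown 16-24 hr, then given compounds in DMSO with the PDE inhibitor […] (300 uM solution added) for 30 min at 37C; cAMP was read by HTRF.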
Starred values were filed as active, the others as inactive; ? = inconclusive; · = no result given; ! = not active in a repeat; [ ] = remark or other dose.

Under each structure: Sfp inh | ClpP mod | D2 PAM | TRPV1 potentiator | gsp agonist | gsp antag | Menin-MLL FL inh
- Cc1ccccc1Cn1ccc(NC(=O)c2cnn3c2NC(c2ccccc2)CC3C(F)(F)F)n1 (stereo not given)
  16% | 0.0% | -11 | 3 | -8% | -7% | 0.8
- O=C1c2ccccc2NC2(CCCC2)N1NS(=O)(=O)c1ccccc1
  18% | · | -4 | 4 | -23% | 7% | 2.8
- COc1ccc(-c2nc3n(n2)C(c2ccncc2)C(C(N)=O)=C(C)N3)cc1 (stereo not given)
  14% | 2.5% | 4 | 0 | 0%[15.4 µM] | 7% | 0.9
- CCOC(=O)CC1C(=O)NCCN1C(=S)Nc1ccccc1 (stereo not given)
  ? | 1.0% | -5 | 9 | -1% | 4% | 1.3
- O=C(CNC(c1ccccc1)c1ccccc1)Nc1ccccc1-c1ccccc1
  23% | -0.5% | -6 | -1 | -11% | -21% | 4.5
- CC(C)(C)c1ccc(C(=O)N2CCC(NC(=O)c3ccccc3)CC2)cc1
  5% | 1.2% | -7 | ? | -81%[inhibitor] | -3% | -17
- C=CCn1sc(=N)c(C#N)c1N
  9% | -2.8% | -13 | 0 | -8% | -3% | 5.5
- C=CCn1c(SCC(=O)Nc2ccc(N3CCOCC3)cc2)nnc1-c1ccco1
  13% | · | 0 | 5 | -43%[inhibitor] | -3% | 4.2
- Cc1ccc(NC(=O)COC(=O)c2ccc3c(=O)n4c(nc3c2)CCC4)c(Br)c1
  · | -7.3% | -2 | -1 | 26% | 22% | ·
- O=C(NN=C1C2CC3CC(C2)CC1C3)c1ccncc1
  -15% | -1.0% | -1 | · | ? | 3% | 1.3
- CC(C)Oc1ccc(C(=O)OCC(=O)c2ccc[nH]2)cc1
  · | -5.4% | -9 | · | 14% | -5% | ·
- CNC(=O)C1CN(C(=O)c2nn(Cc3ccccc3)c(=O)c3ccccc23)c2ccccc2O1 (stereo not given)
  · | 2.8% | 10 | · | -18% | · | ·
- Cc1sc2ncnc(Sc3nnnn3-c3ccccc3)c2c1C
  ? | 32µM*! | -10 | 7 | -53%[inhibitor] | 2% | 2.9
- CCn1nnc(NC(=O)c2cc(Cl)c(OC)c(Cl)c2)n1
  4% | 0.4% | -15 | -13 | -7%[15.4 µM] | 1% | -1.4
- Cc1[nH]c2c(C)cccc2c(=O)c1CN1CCCCCC1
  7% | -14% | -17 | 28 | -3% | 0% | -3.5
- CCCCOC(=O)c1c(C)oc2ccc(NS(=O)(=O)c3ccc4c5c(cccc35)C(=O)N4)cc12
  6% | -7.9% | 2 | 7 | -46%[inhibitor] | 17% | 2.8
- O=C(CN1CCN(S(=O)(=O)N2CCCCCC2)CC1)Nc1ccc(F)cc1
  1% | 0.5% | -9 | -21 | -6%[15.4 µM] | 10% | 4.0
- Cc1ccc([N+](=O)[O-])cc1N/C=C1\CCc2ccccc2C1=O
  -14% | -1.9% | 7 | 2 | -20% | -1% | -0.4
- Cc1c(C(=O)N2CCCC2)sc(NC(=O)c2ccccc2)c1C#N
  -6% | 0.6% | 1 | -11 | -6% | ? | 2.1
- C=CCc1cccc(CNc2nc3ccccc3n2CCN2CCOCC2)c1O
  8% | -0.9% | -10 | 1 | -1% | -15% | -0.9
- COc1cccc(Cn2nc(C(=O)O)c3ccccc3c2=O)c1
  6% | -2.9% | -4 | -3 | 19%[15.4 µM] | 5% | -3.0
- C=CCSc1nnc(NC(=O)C2CC(=O)N(c3ccc4c(c3)OCCO4)C2)s1 (stereo not given)
  · | -4.1% | -12 | · | -20% | -9% | ·
- O=C(Cn1cc(C(=O)c2ccco2)c2ccccc21)NC1CC1
  22% | -0.4% | -4 | -10 | 0%[15.4 µM] | -20% | 0.1
- COc1ccc2c(CC(=O)N(C)CC3COc4ccccc4O3)coc2c1 (stereo not given)
  ? | -2.8% | -2 | 14 | -18% | -9% | 4.6
- CCCN1CCN(CCCNC(=O)CN2C(=O)COc3ccc(C(C)(C)C)cc32)CC1
  · | 1.2% | -15 | · | -1% | · | ·
- CCN(CC(=O)Nc1c(F)cccc1F)C(=O)CNC(=O)c1cccs1
  · | ? | 22 | 9 | ? | 8% | ·
- O=C(O)c1cc(-c2ccncc2)nc2ccc(S(=O)(=O)N3CCOCC3)cc12
  27% | -4.3% | -12 | -2 | -12% | -3% | 5.0
- Cc1ccc(NC(=O)c2sccc2-n2cccc2)c(C)c1
  ? | 1.8% | -4 | 9 | -58%[inhibitor] | ? | -0.8
- Brc1ccc(-c2nnc(Cc3ccccc3)o2)cc1
  6% | -4.9% | -10 | 5 | -5% | -9% | 3.0
- Cn1c(SCc2cccc(F)c2)nnc1-c1ccccn1
  10% | -4.2% | -5 | -14 | 0% | -4% | 0.1
- CCC(=O)N1N=C(c2cccc(NS(C)(=O)=O)c2)CC1c1cccs1 (stereo not given)
  -1% | -7.9% | -19 | 4 | 1% | 4% | -1.1
- N#CC(C#N)=CNc1cccnc1
  12% | 0.2% | -1 | 1 | -36%[inhibitor] | 4% | 3.0
- COc1ccc(OC)c(CN2CCN(CC(=O)Nc3ccccc3C(=O)NC3CC3)CC2)c1
  · | -3.2% | -32 | 1 | 1% | -1% | ·
- CCOc1ccc(-n2c(SCC(=O)Nc3ccc(C(=O)O)cc3)nc3ccccc3c2=O)cc1
  2% | -5.8% | -5 | -31 | 0% | -16% | 3.4
- CCn1c(SCc2cccc(F)c2)nc2c(c1=O)SCC2
  -6% | · | -4 | -15 | 9%[15.4 µM] | -22% | 0.2
- O=C(CSc1ccccc1)N1CCc2ccccc21
  7% | -2.5% | -18 | -11 | ? | -8% | 0.5
- CCSC1=NCCN1C(=O)c1ccc(S(=O)(=O)N(CC)CC)cc1
  13% | · | -5 | 13 | 12%[15.4 µM] | 3% | -3.5
- CCCC(=O)Oc1ccc(C2NC(=O)c3ccccc3O2)cc1OC (stereo not given)
  13% | · | -4 | ? | -11% | -5% | -4.9
- CCOc1ccc(NC(=O)CC2NCCNC2=O)cc1 (stereo not given)
  21% | -1.0% | -4 | 7 | 0% | 15% | -0.7
- Cc1cc(/C=N/NC(=O)Cn2c3ccccc3c(=O)c3ccccc32)c(C)n1-c1ccccc1
  9% | 1.2% | -6 | 11 | 1%[15.4 µM] | 6% | 1.9
- COc1ccc2oc(=O)c(N3C(=O)c4ccccc4C3=O)cc2c1
  16% | -3.3% | -7 | -2 | 1% | -2% | 1.4
- Cc1c(C(=O)NC2CCOC2)oc2c(F)cccc12 (stereo not given)
  13% | -2.6% | -6 | -8 | 1% | -2% | -0.1
- CC(=O)Nc1ccn(Cc2c(F)cccc2Cl)n1
  14% | -1.8% | -2 | 17 | -7% | 6% | 0.1
- COCCNC(=O)C(C(=O)c1ccc(F)cc1)n1cc(C)ccc1=O (stereo not given)
  13% | -0.9% | -11 | 4 | -2% | -1% | 0.0
- O=C(Nc1cccc(F)c1)Nc1ccc(Cl)cn1
  27% | -1.3% | 1 | -6 | 3% | -10% | 2.5
- O=S(=O)(Nc1ccc(Cl)cc1)c1cccc2cccnc12
  1% | -6.6% | -3 | 9 | 10%[15.4 µM] | -12% | 0.7
- O=C(CSc1nn(-c2ccc(F)cc2)c(=S)s1)NCC1CCCO1 (stereo not given)
  8% | 1.2% | -16 | 2 | -1% | -14% | 14
- COc1c(Br)cc2c(C)c(C(=O)N3CCOCC3)oc2c1Br
  -7% | -6.3% | -8 | -11 | -13% | -3% | -0.4
- CCC(C)N1C(=O)c2ccccc2C1C(=O)NC1CCCCCC1 (stereo not given)
  8% | 2.3% | -16 | 10 | -41%[inhibitor] | 1% | 8.7
- Cc1cnc(C(=O)Nc2ccccc2-c2nnn(CC(=O)NC3CCCC3)n2)cn1
  -3% | -1.5% | -18 | -7 | 0% | -2% | 0.4
- C=CCOc1ccc(C(=O)Nc2ccc3c(c2)n(C)c(=O)n3C)cc1
  2% | 0.6% | -6 | -24 | -6%[15.4 µM] | -4% | 0.0
- O=C(NCCc1cscn1)C1CCC(=O)N(Cc2ccc(Cl)cc2)C1 (stereo not given)
  -10% | -3.3% | -11 | -3 | -26% | -3% | ·
- O=C(NN=C1CCCC1)c1ccc([N+](=O)[O-])cc1
  -13% | -3.1% | -12 | -15 | 4% | 3% | 0.9
- c1ccc(NN(Cc2ccncc2)c2ccccc2)cc1
  · | -0.4% | -6 | · | 18% | · | ·
- Cc1ccc2[nH]c3c(=O)n(Cc4ccco4)cnc3c2c1
  11% | · | -4 | -1 | -6%[15.4 µM] | 8% | 0.4
- CN(C)S(=O)(=O)c1ccc2oc(SCC(N)=O)nc2c1
  12% | -3.9% | -21 | 10 | -46%[inhibitor] | -3% | -0.3
- Nc1cc([N+](=O)[O-])ccc1O
  -10% | -5.1% | -36 | -3 | 1% | -8% | -7.3
- CC(NC(=O)CN1CCc2ccccc21)c1ccccc1 (stereo not given)
  17% | -3.6% | -9 | -6 | -2%[15.4 µM] | 1% | 1.8
- COc1ccc([C@H]2/C=C\CN(C(=O)C3CCCC3)[C@@H](C)C(=O)N2Cc2ccc(F)cc2)cc1
  · | -1.7% | -17 | · | -9% | -16% | ·
- CCC(=O)Nc1ccc2c(c1)ncn2CCc1ccccc1
  25% | 2.3% | -4 | 7 | ? | 3% | 0.2
- CCN(CC)c1ccc(N=CN2CCOCC2)cc1
  4% | · | 2 | -2 | -13%[15.4 µM] | · | ·
